E coli growth – inhibitors of Escherichia coli growth | OD600, 23 h; active compounds read low | OD600 absorbance (no concentration beside the values) | hit rate 0.21% among 330,000;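 active = OD600 absorbance below the run mean of sample wells minus 3.6 SD, in any replicate, cut at about 0.56 in these data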;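 note: stock transfer was 300 nL into about 60 µL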
ALR H2O2 inh – human ALR oxidase inhibition via reduced H2O2 | hit rate 3.8% among 290,000 | AID 485317 | purified ALR, DTT oxidation, H2O2 HRP-luminol luminescence | inhibition, % (test concentration not listed);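 active = mean and each replicate at 75% or more; inconclusive = only one of the two met; inactive = neither met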;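 note: stock transfer was 7.5 nL into about 7.5 µL; 0% = neutral wells and 100% = wells with inactivated enzyme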
Target sequence (P55789 whole entry, looked up): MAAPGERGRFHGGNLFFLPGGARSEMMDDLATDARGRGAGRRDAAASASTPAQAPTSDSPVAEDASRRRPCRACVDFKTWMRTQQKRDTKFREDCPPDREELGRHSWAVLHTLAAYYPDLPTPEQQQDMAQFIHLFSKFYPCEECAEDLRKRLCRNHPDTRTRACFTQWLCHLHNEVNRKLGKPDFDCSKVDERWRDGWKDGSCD
rRNA inh HTS – selective bacterial rRNA inhibition in E. coli | E. coli WT GFP vs humanized-ribosome RFP mutants, fluorescence, 24 h; active compounds read low; DMSO median 0, no signal -100 | GFP signal change (wild-type ribosome), % (no concentration beside the values) | hit rate 1.6% among 350,000 | AID 720706;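 active = significant combined selectivity score with lowered wild-type GFP, culture density cut under 30%, mutant RFP and density less affected; inactive = any of these conditions unmet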; note: one replicate is shown; some compounds called inactive have numbers as strong as hits
FGF22 binding – binders of recombinant human FGF22 by thermal shift; Q9HCT0; SYPRO orange fluorescence; percent of sucrose octasulfate shift, DMSO zero; calls only at 9.99 µM; hit rate 1.5% among 340,000; AID 651658;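 active = melting point raised past a set limit in the mean and every replicate; inconclusive = no clear call; three in four hits are not shown here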
Target sequence (Q9HCT0 whole entry, looked up): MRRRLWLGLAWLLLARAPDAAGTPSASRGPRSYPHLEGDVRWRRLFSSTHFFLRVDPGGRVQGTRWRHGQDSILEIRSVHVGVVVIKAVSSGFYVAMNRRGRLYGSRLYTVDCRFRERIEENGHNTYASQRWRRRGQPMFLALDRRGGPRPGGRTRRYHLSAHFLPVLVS
HNF4A DNA FP – change in binding of human HNF4 alpha to DNA; AID 1224865; activity change, % at 10 µM; HNF4a-FITC DNA binding, fluorescence polarization, 1 h; P41235; hit rate 0.3% among 360,000; in the data active = activity change above about 30%, passing the limit was not always enough;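 note: controls were the assay level and a saturating level of protein; the project sought stronger binding though the title names inhibitors; some compounds called inactive have numbers as strong as hits; positive values seem to mean higher polarization but the record does not say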
Vif TR-FRET – HIV-1 Vif–A3G interaction blockers – biochemical, TR-FRET, GST-Vif 1-94, biotin-A3G peptide, dose response retest, primary screen (AID 1117319) | TR-FRET GST-Vif / biotin-A3G peptide binding; higher % means a stronger effect; test concentration not given here; strong numbers were not always called active | inhibition, %, or IC50 in µM where a hit was titrated | hit rate 0.57% among 260,000;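 active = above the screen mean plus three standard deviations and confirmed in dose response; inconclusive = results disagree or hit not tested in dose response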;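 note: Vif residues 1-94 fused to GST binding biotinylated APOBEC3G peptide 110-148; 0% = full assay without inhibitor and 100% = GST in place of GST-Vif; retest series ran down from 100 µM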
AF4-AF9 inh – inhibitors of human MLL-AF4/AF9 interaction; P42568; AlphaScreen, biotin-AF4 peptide binding to FLAG-AF9; inhibition, % at 10 µM; hit rate 0.47% among 350,000;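 active = every replicate reaching a set inhibition limit, whatever the replicate mean, cut at about 25% in these data; inconclusive = mean inhibition reaches that limit but some replicates miss it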;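 note: 0% = plate neutral control median and 100% = total signal loss; the record names both 10 and 1 µM as test concentration; the first replicate is given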
Target sequence (P42568 whole entry, looked up): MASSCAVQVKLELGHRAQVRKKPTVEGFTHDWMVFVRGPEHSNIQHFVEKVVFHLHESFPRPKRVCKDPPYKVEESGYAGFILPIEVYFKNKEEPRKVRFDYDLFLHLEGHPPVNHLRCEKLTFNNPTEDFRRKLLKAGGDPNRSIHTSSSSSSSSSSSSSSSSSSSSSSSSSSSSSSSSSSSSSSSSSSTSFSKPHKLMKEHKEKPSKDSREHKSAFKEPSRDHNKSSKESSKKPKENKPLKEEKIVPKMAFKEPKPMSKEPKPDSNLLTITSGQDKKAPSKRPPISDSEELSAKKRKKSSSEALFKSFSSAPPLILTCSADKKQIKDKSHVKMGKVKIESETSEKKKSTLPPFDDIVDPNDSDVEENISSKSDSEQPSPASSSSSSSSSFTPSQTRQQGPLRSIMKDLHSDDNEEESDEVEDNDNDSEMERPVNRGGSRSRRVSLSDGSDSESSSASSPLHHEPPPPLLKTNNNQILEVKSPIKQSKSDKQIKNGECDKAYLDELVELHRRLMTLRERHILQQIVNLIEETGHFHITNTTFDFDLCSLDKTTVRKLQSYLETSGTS
rRNA inh HTS OD600 – second read-out of rRNA inh HTS, no call of its own (marks repeat the call); OD600 change, %; measured here: OD600 growth;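 optical density of the mix in the first replicate; 0 = DMSO median and -100 = no signal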
rRNA inh HTS RFP – second read-out of rRNA inh HTS, no call of its own (marks repeat the call); RFP signal change, %; measured here: RFP humanized mutant strains;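 first replicate; 0 = DMSO median and -100 = no signal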
* hit, by the source's call; i = inactive; ? = inconclusive; nt = not tested or not shown; & = joins results of further samples. The list is partial; count on the stated rates, not on these rows.

molecule	ALR H2O2 inh	FGF22 binding	rRNA inh HTS	rRNA inh HTS OD600	HNF4A DNA FP	AF4-AF9 inh	E coli growth	rRNA inh HTS RFP	Vif TR-FRET
O=C(C[C@H]1C[C@H]2c3cc(NC(=O)NC4CCCCC4)ccc3O[C@H]2[C@@H](CO)O1)NCc1cccnc1	nt	i	0.7	14.7	nt	0.0	nt	-1.4	nt
CCCCc1nnc(NC(=O)CCS(=O)(=O)Cc2ccccc2)s1	-3.1	i	7.6	10.0	-4.1	1.7	0.699	-1.4	nt
O=C(CNC(=O)c1ccc2c(c1)OCO2)N/N=C(Br)/C=C/c1ccccc1	-4.4	nt	nt	nt	-1.5	nt	nt	nt	?
Cc1ccc(S(=O)(=O)N(C)C[C@@H]2Oc3c(NC(=O)c4ccc(-c5nccs5)cc4)cccc3C(=O)N([C@H](C)CO)C[C@H]2C)cc1	nt	i	-10.3	-8.1	nt	0.1	nt	0.2	nt
CC(=O)Nc1ccc(NC(=O)CSc2ccc(-c3ccco3)nn2)cc1	96.3*	i	-9.7	0.8	2.0	-0.8	0.689	-1.2	5.7%
CCc1ccc(OCC(=O)N(Cc2cccs2)C2CCS(=O)(=O)C2)cc1 (stereo not drawn)	-13.0	i	0.5	-20.4	1.4	-19.0	0.696	-4.8	nt
CC1CC(C)(C)CC2(C1)NC(=O)N(CC(=O)N(Cc1ccccc1)c1ccccc1)C2=O (stereo not drawn)	-0.6	i	5.9	9.9	6.4	1.7	0.672	-1.3	4.0%
CC(=O)Nc1cccc(-c2csc(N)n2)c1	98.4*	i	11.3	7.3	-4.8	0.8	nt	0.9	?
O=C(c1c(F)cccc1F)N1CCN(S(=O)(=O)c2ccc3c(c2)OCCO3)CC1	-0.5	i	-9.2	-9.3	0.0	1.6	0.697	-7.1	nt
CCCCn1c(N)c(N(Cc2ccccc2OC)C(=O)COc2ccc(F)cc2Cl)c(=O)[nH]c1=O	4.0	i	3.6	7.0	4.0	-0.5	0.695	2.4	nt
O=C(Nc1ccc(F)cc1F)C1CCCN(c2ncnc3c2nc2n3CCCCC2)C1 (stereo not drawn)	-4.8	nt	-38.6	-61.9	-3.7	nt	0.682	-21.0	nt
CC(Sc1nnc(N)s1)C(=O)Nc1ccc2c(c1)OCCO2 (stereo not drawn)	-0.7	i	6.9	11.8	-1.9	-1.2	0.667	0.0	2.4%
CCN(CC)CC(O)CCCCCCCCC(=O)OC (stereo not drawn)	-6.6	i	12.9	13.2	1.3	2.0	0.681	0.3	nt
CC(C)(C)NC(=O)C(c1ccco1)N(C(=O)Cn1nnc(-c2ccc(F)cc2)n1)c1ccccc1F (stereo not drawn)	28.7	nt	nt	nt	-0.8	nt	0.63	nt	-8.5%&4.7%
O=C(CN1C(=O)CCC1=O)Nc1nc(-c2ccc(Oc3ccccc3)cc2)cs1	-2.7	i	-22.0	-14.5	-1.9	-2.7	0.675	0.4	nt

Other entries follow.
molecule	ALR H2O2 inh	FGF22 binding	rRNA inh HTS	rRNA inh HTS OD600	HNF4A DNA FP	AF4-AF9 inh	E coli growth	rRNA inh HTS RFP	Vif TR-FRET
COC(=O)C[C@@H]1C=C[C@@H](NS(=O)(=O)c2ccccc2F)[C@H](CO)O1	nt	i	3.5	5.7	nt	-3.1	nt	-2.5	nt
CN1C(=O)c2cc(NC(=O)NC3CCCC3)ccc2OC[C@@H]2O[C@H](CC(=O)NCC3CC3)CC[C@@H]21	nt	i	2.5	12.5	nt	-4.1	nt	-1.1	nt
COc1ccc(N2CCN(C(=O)C3CCN(S(=O)(=O)c4ccc(F)cc4)CC3)CC2)cc1	53.1	i	-11.4	-17.8	0.7	4.5	0.709	0.5	12.1%
O=C(C[C@@H]1CC[C@H]2[C@@H](COC[C@H](O)CN2Cc2ccccc2)O1)N1CCOCC1	nt	i	-0.3	0.1	nt	-5.3	nt	-4.3	nt
CCCCCCC(=O)N(O)C1CC(=O)N(c2ccc(F)cc2)C1=O (stereo not drawn)	8.1	i	nt	nt	0.9	0.6	0.622	nt	-9.5%
CCCSc1ccc2nc(-c3ccccc3)cn2c1	-8.3	nt	nt	nt	0.4	nt	0.674	nt	-2.3%
COc1ccccc1NC(=O)N(C)C[C@@H]1Oc2ncc(C#CC(C)C)cc2C(=O)N([C@@H](C)CO)C[C@@H]1C	nt	i	-4.2	-1.2	nt	-3.1	nt	0.4	nt
CC(C)(C)S(=O)c1cccs1 (stereo not drawn)	nt	i	11.9	5.3	6.2	-8.6	0.646	6.6	3.9%
Cc1ccc(C(O)CN2C3=NCCCN3c3ccccc32)cc1 (stereo not drawn)	0.1	i	5.6	-3.4	3.4	-0.8	0.631	-5.4	nt
Cc1ccc(C(=O)NC(C)(COc2nonc2C)COc2nonc2C)cc1	-6.0	nt	-8.0	-2.8	1.4	nt	0.622	1.4	0.6%
C=CCNC(=S)N1CCC(C(N)=O)CC1	-3.9	i	6.8	5.7	4.1	-1.8	0.676	-0.4	0.3%
Cn1c(CCNC(=O)c2ccccc2Cl)n[nH]c1=S	96.0*	nt	nt	nt	-2.3	nt	0.689	nt	0.6%
Cc1ccc(S(=O)(=O)Nc2ccc3c(c2)C(=O)N([C@H](C)CO)C[C@@H](C)[C@H](CN(C)S(=O)(=O)c2cccs2)OCCCC[C@@H](C)O3)cc1	nt	i	-1.2	2.8	nt	1.8	nt	1.2	nt
O=C(CNC(=O)c1cccs1)NCC(=O)OCC(=O)c1ccccc1	nt	i	6.3	7.9	-1.9	-2.1	0.718	-2.4	nt
O=C(CN(Cc1ccc(F)cc1)S(=O)(=O)c1ccccc1)N1CCCCC1	-8.2	nt	nt	nt	4.1	nt	0.749	nt	-1.4%

Further results:
molecule	ALR H2O2 inh	FGF22 binding	rRNA inh HTS	rRNA inh HTS OD600	HNF4A DNA FP	AF4-AF9 inh	E coli growth	rRNA inh HTS RFP	Vif TR-FRET
COc1ccc(NC(=O)N(C)C[C@@H]2OCCCC[C@H](C)Oc3ccc(NC(=O)Nc4c(C)noc4C)cc3C(=O)N([C@@H](C)CO)C[C@H]2C)cc1	nt	i	1.7	1.9	nt	0.3	nt	-0.3	nt
COC(=O)c1ccc(S(=O)(=O)N(Cc2ccccc2)Cc2ccccc2)n1C	3.4	i	12.8	10.7	-3.5	2.2	0.678	3.6	15.8%
CNc1nc(Nc2ccc([N+](=O)[O-])cc2)nc(OCC(F)(F)F)n1	-1.4	i	-6.3	7.0	-2.3	-1.0	0.701	-3.6	nt
CC(=O)c1nnn(-c2c(F)cccc2F)c1C	-13.5	i	0.0	2.2	-0.1	-4.1	0.664	-3.2	12.3%
O=C(O)C[C@@H]1C[C@H]2c3cc(NS(=O)(=O)c4ccc(F)cc4)ccc3O[C@H]2[C@H](CO)O1	nt	i	1.0	5.5	nt	-2.5	nt	1.1	nt
CN(C)c1nc(N)nc(CSc2nnnn2-c2cccc3ccccc23)n1	-5.2	nt	nt	nt	-2.2	nt	0.649	nt	-4.1%
CCOC(=O)C1=CCN(S(=O)(=O)c2ccc(C)cc2)C1c1cccc(Cl)c1 (stereo not drawn)	nt	i	-21.0	-12.9	-1.6	-2.5	nt	-4.4	nt
COC(=O)c1c(C)[nH]c(/C=N/Nc2ccccc2)c1C	14.3	i	nt	nt	5.5	3.2	nt	nt	-3.8%
Cc1ccc(-c2cnc3c(Nc4cccc(OC(F)(F)C(F)F)c4)nccn23)cc1	nt	i	5.1	5.5	4.2	3.4	nt	-1.1	nt
CCN(C(=O)Cc1ccc(Br)cc1)C1CCCCC1	-4.2	nt	nt	nt	-0.7	nt	0.781	nt	1.5%
CC(C)NC(=O)N(C)C[C@@H]1Oc2cc(-c3ccccc3F)ccc2S(=O)(=O)N([C@H](C)CO)C[C@@H]1C	nt	i	-6.5	-5.8	nt	1.5	nt	-0.2	nt
COc1cc(NC(=O)CCN2CCOCC2)cc(OC)c1	9.8	i	15.2	7.5	0.9	-3.5	0.681	-1.8	nt
CCOC(=O)c1sc2nccc(N(C)C)c2c1N=CN(C)C	nt	nt	nt	nt	-2.8	nt	0.723	nt	5.4%
CCOC(=O)Cc1cnc(NC(=O)CSc2nc(C(C)C)cc(=O)[nH]2)s1	67.6	i	-5.4	-0.9	-1.3	-3.2	0.626	-2.3	nt
O=S(=O)(CCN1CCN(C(c2ccccc2)c2ccccc2)CC1)C(F)(F)F	6.7	nt	nt	nt	1.0	nt	0.654	nt	8.9%

Later entries.
molecule	ALR H2O2 inh	FGF22 binding	rRNA inh HTS	rRNA inh HTS OD600	HNF4A DNA FP	AF4-AF9 inh	E coli growth	rRNA inh HTS RFP	Vif TR-FRET
COC(=O)c1ccc(C(=O)OC)c(NC(=O)CCc2ccc(C)o2)c1	nt	nt	nt	nt	0.6	nt	0.736	nt	3.2%
CCC(=O)N1CC2(CN(C(=O)Nc3ccccc3F)C2)c2c([nH]c3cc(OC)ccc23)[C@@H]1CO	nt	i	-0.3	4.6	nt	-0.1	nt	-3.5	nt
COc1cc(NC2c3ncccc3C(=O)N2Cc2ccco2)cc(OC)c1OC (stereo not drawn)	nt	i	10.0	6.5	3.0	4.4	0.691	1.6	-6.3%
C[C@H](CO)N1C[C@H](C)[C@@H](CN(C)C(=O)Nc2ccccc2)Oc2ccc(NC(=O)Nc3ccc(F)cc3)cc2CC1=O	nt	i	-0.5	2.8	nt	2.7	nt	0.0	nt
COc1ccc(N2C(=O)CCC(C(=O)N(C)CCc3ccccn3)C2c2ccc(OC)c(OC)c2)cc1 (stereo not drawn)	8.3	i	5.8	0.2	-2.0	-14.5	0.676	0.7	9.6%
CCOC(=O)c1c(C)[nH]c(C(=O)Cn2nnc(-c3ccc(Cl)cc3)n2)c1C	-1.0	nt	nt	nt	2.5	nt	0.714	nt	?
COc1ccc(-n2c3c(cc(C(=O)NC4CCSC4=O)c2=O)C(=O)CC(C)(C)C3)cc1 (stereo not drawn)	-3.9	nt	nt	nt	1.9	nt	0.702	nt	17.9%
COc1cccc(NC(=S)N2CCCC2)c1	-0.5	nt	nt	nt	-1.4	nt	0.718	nt	nt
CCC(=O)Nc1ccc2c(c1)C(=O)N(C)C[C@H](OC)[C@H](C)CN(C(=O)CC)[C@@H](C)CO2	nt	i	1.6	7.6	nt	-1.5	nt	-1.7	nt
COc1ccc(S(=O)(=O)N(C)C[C@H]2Oc3c(NC(=O)Nc4ccc(F)cc4)cccc3C(=O)N([C@H](C)CO)C[C@H]2C)cc1	nt	i	-5.1	-16.2	nt	4.6	nt	0.8	nt
C[C@H](CO)N1C[C@H](C)[C@H](CN(C)Cc2ccccc2)Oc2ccc(NC(=O)Nc3ccc(F)cc3)cc2CC1=O	nt	i	-5.1	-50.5	nt	-0.4	nt	22.9	nt
Oc1ccc(CNc2ccccc2F)c2cccnc12	-14.2	i	-15.1	-5.0	1.2&-3.6	-1.4	0.716	-3.8	?
COC(=O)[C@@]12C[C@@H](CC(=O)N3CCN(C(=O)C4CC4)CC3)C(=O)N(Cc3ccc4c(c3)OCO4)C1=CCC(C)(C)C2	nt	i	-4.1	-1.1	-1.9	nt	nt	0.2	nt
CCc1cccc2c(C(=S)N3CCCC3)c[nH]c12	14.3	i	-10.6	-11.8	4.0	0.0	0.694	-1.7	2.5%
O=C(NCC[C@@H]1CC[C@@H](NC(=O)C2CCC2)[C@H](CO)O1)c1cc(Cl)cc(Cl)c1	nt	i	-5.5	-8.8	nt	-2.4	nt	0.6	nt
Cc1ccsc1C(=O)NNC(=O)C1CCCCC1C(=O)O (stereo not drawn)	4.0	nt	nt	nt	7.2	nt	0.731	nt	11.7%
CCCCn1c(N)c(N(CCOC)C(=O)c2cc(-c3ccc(F)cc3)nc3ccccc23)c(=O)[nH]c1=O	-18.3	i	-1.4	5.1	-4.7	-11.2	0.684	-1.5	-5.0%

High-throughput results deposited in PubChem BioAssay by several laboratories.
